Beta apoptosis – inhibitors of cytokine-induced beta cell apoptosis, primary screen, luminescence; 300,000 tested, 0.8% active; protection from apoptosis, % (no concentration beside the values); INS-1E cytokine-induced death, ATP luminescence, 48 h; percent of positive-control rescue, neutral wells zero;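 active means all replicates at 75% or more, or half of them and the mean; inconclusive means half reach 75% but not the mean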;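 further: 0% = cytokine-treated negative control wells and 100% = positive control rescue; higher means more ATP so stronger rescue from cytokine killing; wells of about 40 µL received 100 nL stock; the first replicate is given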
Ecoli rRNA inh – reduced GFP signal of wild-type E. coli, primary screen, bacterial rRNA inhibitor project, GFP/RFP fluorescence, OD600, single point; E. coli WT GFP vs humanized-ribosome RFP mutants, 24 h; stronger effect = lower value; DMSO median 0, no signal -100; GFP signal change (wild-type ribosome), % (concentration not given with the values); 350,000 tested, 1.6% active; AID 720706, 2013;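 active means significant combined selectivity score with lowered wild-type GFP, culture density cut under 30%, mutant RFP and density less affected; inactive means any of these conditions unmet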; further: one replicate is shown; some compounds called inactive have numbers as strong as hits
T cruzi inh – inhibitors of intracellular T. cruzi growth, primary screen, luminescence, NIH3T3 host cells; T. cruzi beta-gal in NIH3T3, 90 h; 300,000 tested, 1.4% active; inhibition, % (no concentration beside the values);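 active means mean inhibition across valid replicates above about 55%, limit read from the data; inconclusive means mean below that limit but half or more replicates reach it; inactive means mean below it, under half of replicates reach it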;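 further: signal also drops with host cell toxicity which is not excluded here; 0% = plate median of DMSO wells and 100% = zero luminescence signal; higher percent means less beta-gal luminescence so fewer parasites; stock transfer was 50 nL into about 50 µL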
Calb FLC – C. albicans growth inhibition with fluconazole, primary screen, CaCi-2 strain, Alamar Blue fluorescence; C. albicans CaCi-2 (fluconazole-resistant clinical isolate) + fluconazole, 48 h; growth inhibition, % (test concentration not listed); 300,000 tested, 0.57% active; AID 1979, 2009;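 active means most replicates above 75%; inconclusive means exactly half above 75%; inactive means most below 75%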;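 further: all wells also contain fluconazole at 8 µg/ml as a sub-toxic cotreatment; 0% = median of DMSO wells and 100% = median of geldanamycin control wells; wells of about 8 µL received 7.5 nL stock; the first replicate is given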
AF4-AF9 inh – inhibitors of AF4 peptide binding to AF9, primary screen, biochemical, AlphaScreen, biotin-AF4 peptide, FLAG-AF9, single point. inhibition, % at 10 µM. 350,000 tested, 0.47% active. AID 651704, 2012;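 active means every replicate reaching a set inhibition limit, whatever the replicate mean, cut at about 25% in these data; inconclusive means mean inhibition reaches that limit but some replicates miss it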;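 further: 0% = plate neutral control median and 100% = total signal loss; the record names both 10 and 1 µM as test concentration; the first replicate is given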
Target sequence (P42568 whole entry, looked up): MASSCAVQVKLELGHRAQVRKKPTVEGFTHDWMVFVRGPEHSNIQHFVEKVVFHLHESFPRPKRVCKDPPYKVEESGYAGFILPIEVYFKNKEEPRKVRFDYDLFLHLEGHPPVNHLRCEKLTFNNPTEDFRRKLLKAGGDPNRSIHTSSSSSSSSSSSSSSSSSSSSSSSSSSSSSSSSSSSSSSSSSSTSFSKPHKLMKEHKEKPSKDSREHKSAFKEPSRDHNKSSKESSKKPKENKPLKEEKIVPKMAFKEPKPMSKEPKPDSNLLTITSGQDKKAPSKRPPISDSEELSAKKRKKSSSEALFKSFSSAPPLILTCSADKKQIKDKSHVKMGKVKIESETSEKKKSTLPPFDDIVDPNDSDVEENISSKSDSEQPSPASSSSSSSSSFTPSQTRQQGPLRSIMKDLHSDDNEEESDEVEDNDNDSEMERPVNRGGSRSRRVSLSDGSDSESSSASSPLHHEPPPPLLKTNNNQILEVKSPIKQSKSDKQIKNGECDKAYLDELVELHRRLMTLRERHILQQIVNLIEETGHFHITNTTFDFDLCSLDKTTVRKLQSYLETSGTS
Vif A3G – inhibitors of Vif binding to APOBEC3G peptide, primary screen, biochemical, TR-FRET, GST-Vif 1-94, biotin-A3G peptide, dose response retest (AID 1117319) | Virion infectivity factor (Human immunodeficiency virus type 1 group M subtype B (isolate … | 260,000 tested, 0.57% active | TR-FRET GST-Vif / biotin-A3G peptide binding; higher % means a stronger effect; test concentration not given here; strong numbers were not always called active | one-dose inhibition, %; IC50 in µM for titrated hits;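 active means above the screen mean plus three standard deviations and confirmed in dose response; inconclusive means results disagree or hit not tested in dose response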;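 further: Vif residues 1-94 fused to GST binding biotinylated APOBEC3G peptide 110-148; 0% = full assay without inhibitor and 100% = GST in place of GST-Vif; retest series ran down from 100 µM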
RanGTP-Impb inh – inhibitors of RanGTP-importin-beta interaction, primary screen, biochemical, FRET, CFP-Ran, YFP-importin-beta, homogeneous. Ran GTPase (GTP-bound) - importin-beta complex. cell-free CFP-Ran/YFP-importin-beta FRET ratio. inhibition, % (no concentration beside the values). 300,000 tested, 1.1% active. AID 2216, 2009;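 active means most replicates above 15%; inconclusive means exactly half above 15%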;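 further: 0% = DMSO wells and 100% = Ran loaded with GDP instead of GTP; wells of about 40 µL received 100 nL stock; the first replicate is given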
Bfl-1 A1 inh – caspase 3/7 activation in MEF A1-2A-BIM cells, primary screen, A1 inhibitor project, cell-based, luminescence, HTS; Caspase-Glo 3/7 luminescence, 3 h; percent of clofoctol response, vehicle zero; AID 2462, 2010; 330,000 tested, 0.066% active; caspase activation, % (no concentration beside the values);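 active means over half of replicate activation scores above 10%, or exactly half above 10 with the replicate mean above 10; inconclusive means replicate mean below 10 yet half the replicates above 10; inactive means over half of replicates below 10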;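 further: wells of about 30 µL received 50 nL stock; many hits fall short of the cut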
Ecoli rRNA inh OD600 – further read-out of Ecoli rRNA inh, marked with its call; OD600 change, %; measured here: OD600 growth;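 optical density of the mix in the first replicate; 0 = DMSO median and -100 = no signal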
Ecoli rRNA inh RFP – second read-out of Ecoli rRNA inh, no call of its own (marks repeat the call); RFP signal change, %; measured here: RFP humanized mutant strains;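 first replicate; 0 = DMSO median and -100 = no signal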
* marks the source's active call; other numbers are inactive results; u = inconclusive; x = not tested or not shown; & = joins results of further samples. This is a subset; rates above refer to the full screens.

SMILES	Beta apoptosis	Ecoli rRNA inh	Ecoli rRNA inh OD600	Ecoli rRNA inh RFP	T cruzi inh	Calb FLC	AF4-AF9 inh	Vif A3G	RanGTP-Impb inh	Bfl-1 A1 inh
Cn1c(/N=C/c2cc(Cl)ccc2O)nc2ccccc21	2	4	9	-5.0	-14	-4	-3.6	-3%	2.6	u
CCOC(=O)C1(Cc2ccccc2)CCCN(Cc2ccncc2)C1 (centres undefined)	-14	-13	-20	-0.6	14	-20	2.7	0%	-1.0	-0.2
CC(=O)Oc1ccc(C)cc1N1C(=O)c2ccc(C(=O)O)cc2C1=O	-13	x	x	x	-9	19	x	16%	6.2	0.6
CCNC(=O)COC(=O)/C=C/c1cccc([N+](=O)[O-])c1	-4	3	3	-3.2	-15	-3	-1.4	-6%	4.1	-0.9
O=C(CCNS(=O)(=O)c1cccc2nsnc12)NCc1cccs1	-7	x	x	x	-5	-2	x	4%	3.0	0.4
C=C(C)COc1ccc(-c2n[nH]c(C)c2-c2ccc(OC)cc2)c(O)c1	29	x	x	x	0	-3	20	5%	0.5	0.4
Cc1cc(C)nc(SCc2ccc(C(=O)NN=C3C4CC5CC(C4)CC3C5)cc2)n1	-5	x	x	x	7	4	x	-1%	4.6	1.3
O=C(COc1cccnc1[N+](=O)[O-])N1CCN(C(=O)c2ccco2)CC1	-10	19	6	1.3	7	12	-4.0	-12%	-3.1	0.4
Cc1ccccc1NC(=O)/C=C/c1ccc([N+](=O)[O-])s1	120*	x	x	x	-10	u	x	x	-1.8	-1.9
O=C1CC(C(=O)Nc2ccc(F)cc2)S/C(=N\N=C\c2ccco2)N1 (centres undefined)	6	x	x	x	-20	0	x	0%	4.8	-0.2
CCC(NC(=O)Nc1nnc(C(F)(F)F)s1)(C(F)(F)F)C(F)(F)F	124*	x	x	x	62*	u	x	18%&2%	u	0.7
CCOC(=O)C(=O)CC(=O)c1ccc2c(c1)OCCO2	0	11	12	-0.5	-8	5	-0.5	u	1.9	-1.4
CCCc1cc(=O)oc2c(C)c(OCC(=O)N3C[C@H]4C[C@@H](C3)c3cccc(=O)n3C4)ccc12	0	x	x	x	1	-1	2.7	x	-2.3	0.2
CCC(C)NCCCCOc1cc(C)cc(C(C)C)c1 (centres undefined)	12	x	x	x	6	2	2.5	-4%	-0.1	-0.5
O=C(COc1ccccc1)NC(=S)Nc1cccc([N+](=O)[O-])c1	x	x	x	x	-18	-5	x	-3%	1.2	-1.5
Cc1cccc(C)c1NC(=O)COC(=O)c1cc(=O)c2ccccc2o1	-7	9	3	-0.1	-14	2	-17	-9%	3.0	0.6
CCN(C(=O)COC(=O)CNC(=O)c1ccc(C)s1)c1ccccc1	-2	15	13	4.2	-8	7	0.0	x	4.1	0.0
COc1ccc(N(CCC#N)S(=O)(=O)c2ccc(Cl)cc2)cc1	1	x	x	x	-14	-31	x	4%	6.6	1.0
COc1ccccc1NS(=O)(=O)c1ccc(C)c(C(=O)Nc2cc(C)on2)c1	9	-13	-38	0.1	x	x	6.5	-2%	x	0.2
COc1ccc(C2=NOC(C(=O)NC(C)C)C2)cc1 (centres undefined)	-2	x	x	x	-7	-9	x	-12%	1.3	0.1
CCN(C(=O)c1cc2ccccc2oc1=O)c1cccc(C)c1	3	x	x	x	-1	-1	x	8%	2.4	-0.2
CCc1nc(N2CCN(Cc3ccc4c(c3)OCO4)CC2)c2oc3ccccc3c2n1	-5	x	x	x	9	-32	x	5%	5.3	0.6
CCOC(=O)c1sc(NC(=O)Nc2ccc(Cl)cc2)nc1C	27	x	x	x	38	6	x	-3%	4.6	0.7
CCOc1ccccc1NC(=O)CCS(=O)(=O)c1ccc(OC)cc1	2	1	-1	1.5	-1	5	-1.6	x	-2.2	0.7
Cn1c(SCC(=O)Nc2ccc3[nH]c(=O)[nH]c3c2)nnc1-c1ccccc1	-6	8	13	-0.3	-1	-8	0.1	x	2.9	-0.1
CN(C)C(CNC(=O)CCCN1C(=O)c2cccc3cccc(c23)C1=O)c1ccccc1 (centres undefined)	9	-8	-8	4.3	5	0	4.7	x	-6.5	-0.9
N#CC1=C(N)Oc2cc(N)ccc2C1c1cc(Br)cs1 (centres undefined)	19	7	3	-4.0	-4	4	-1.7	x	-8.7	1.3
CCN(CC)C(=O)CSc1nc2ccc(NC(=O)CSc3nnc(COc4ccccc4C)n3C)cc2s1	-2	x	x	x	17	-1	x	3%	2.6	-0.1
COc1cccc(C(=O)N2CCN(C(=O)c3cccs3)CC2)c1OC	-4	x	x	x	-2	4	x	24%	1.2	1.2
Cc1nc2ccc(NC(=O)N3CCOCC3)cc2nc1C	x	4	0	-3.6	-5	7	2.8	x	0.3	-0.9
Cc1cc(C=O)c(C)n1-c1ccc(N2CCOCC2)cc1	-7	x	x	x	-3	-10	x	-3%	-1.8	0.2
COC(=O)c1cc(S(=O)(=O)NCC2CCN(Cc3cccc(F)c3)CC2)c[nH]1	0	3	-5	2.9	8	12	0.1	x	2.3	1.4
CN(C(=O)COC(=O)CNC(=O)c1ccc2ccccc2c1)c1c(N)n(Cc2ccccc2)c(=O)[nH]c1=O	-4	8	9	2.1	-10	10	-1.9	x	-2.9	0.1
O=C1c2ccccc2C(=O)N1c1cccnc1	-4	x	x	x	-1	-14	x	-5%	1.3	-0.3
COC(=O)c1ccc(CNC(=O)c2ccc3c(c2)S(=O)(=O)N=C2CCCCCN23)cc1	-3	1	4	0.9	x	x	-5.4	-11%	x	-0.6
COc1ccccc1CNC(=O)C1CCN(Cc2nc(-c3cccc(Cl)c3)oc2C)CC1	9	x	x	x	32	14	x	-10%	-0.2	-0.2
CCSc1nnc(CNc2ccc(C)cc2)n1C	-5	8	6	1.1	-3	-7	0.2	4%	u	0.0
Cc1nn(C(=O)c2cccc([N+](=O)[O-])c2)c(C)c1Sc1ccccc1	-17	x	x	x	-14	-3	x	-2%	2.9	0.2
CCC/C(=N\NC(=O)c1csc(C)c1C)c1cccs1	16	x	x	x	4	1	x	-16%	-6.0	-0.2
O=C(Nc1cccc(C(=O)NC2CCCC2)c1)c1ccccc1	-1	-1	-3	-2.5	18	6	1.2	x	1.8	-0.3
CC(NC(=O)COC(=O)c1ccc2c(c1)OCO2)c1ccccc1 (centres undefined)	-7	8	7	-0.7	-10	-26	-10	3%	-2.4	0.4
Cc1cc(C)n2nc(SCC(=O)c3c(N)n(CC(C)C)c(=O)n(C)c3=O)nc2n1	4	6	11	-2.0	-16	-3	-0.7	21%	-1.6	0.2
Cc1cnc(C(=O)OCC(=O)c2ccc(F)cc2)cn1	-10	5	2	1.4	-11	1	-4.1	x	1.3	-0.1
CC(C)(C)CC(=O)N1CCN(c2ccc(S(=O)(=O)N3CCOCC3)cc2[N+](=O)[O-])CC1	-1	-2	-1	-5.5	x	x	2.5	-3%	x	0.7
CCN1CCN(C(=O)C2CCN(C(=O)Nc3ccccc3)CC2)CC1	-1	7	11	-2.4	x	x	-5.1	8%	x	-0.4
CCCc1nc2cc(Cl)c([N+](=O)[O-])cc2o1	1	6	9	4.6	-5	19	0.3	0%	-3.1	-1.0
C/C=C/C(=O)OCC(=O)Nc1ccc(OC)c(Cl)c1	-1	x	x	x	-4	-3	x	2%	-0.2	-0.1
O=C(O)COc1ccccc1/C=N/NC(=O)CSc1nnc(SCc2ccccc2)s1	-2	2	3	-2.5	5	-15	-0.9	-2%	2.6	-2.3
NC(=O)c1c[nH]c2ccccc12	-1	x	x	x	-6	-5	-2.4	-4%	5.3	-1.4
O=C(CSc1nccn1-c1cccc(Cl)c1)NO	-5	-2	1	11	-3	-2	-13	x	7.6	-0.3
O=C(N/N=C/c1c(O)ccc2ccccc12)c1ccc(Br)o1	102*	20	16	2.4	41	-4	-0.6	x	3.4	-0.2
CC(C)Cc1nc2ccccc2[nH]1	-8	14	4	2.9	-7	0	-6.3	-6%	3.7	0.6
COc1ccccc1NNC(=O)c1cccnc1Oc1ccccc1	-7	x	x	x	0	-8	2.5	-1%	-4.9	-1.1
Cc1cc(Cl)ccc1Oc1nc(-c2ccc(F)cc2)ccc1C#N	26	x	x	x	13	-12	x	-1%	-3.7	0.9
Cc1ccc2ccc(C)[n+](CCCS(=O)(=O)[O-])c2c1	-1	23	20	0.8	-5	-2	-1.1	12%	-0.5	-0.6
CCN1CCN(C(=S)NCC(C)C)CC1	0	x	x	x	-14	-2	x	x	4.5	0.2
COc1ccc(Nc2cc(C(=O)NC3CCCC3)c3ccccc3n2)c(OC)c1	2	2	7	0.0	7	-18	2.4	x	-0.2	1.9
COc1ccc(-n2c(COc3ccc(C)cc3)n[nH]c2=S)cc1	9	-8	-10	2.0	33	14	-8.6	x	4.0	-0.2
CCC(C)[C@H](NC(=O)OC(C)(C)C)C(=O)N/N=C/c1ccc2nccnc2c1 (some centres undefined)	-1	x	x	x	3	-10	x	3%	0.0	-0.1
CC(C)(C)OC(=O)C[C@H]1C/C=C\C[C@@H](CC(=O)N[C@@H](CO)Cc2ccccc2)C(=O)NC[C@H](c2ccccc2)OC1=O	1	12	-1	0.8	x	x	-4.3	x	x	-0.4

(more compounds)
SMILES	Beta apoptosis	Ecoli rRNA inh	Ecoli rRNA inh OD600	Ecoli rRNA inh RFP	T cruzi inh	Calb FLC	AF4-AF9 inh	Vif A3G	RanGTP-Impb inh	Bfl-1 A1 inh
COc1ccc(N2CCN(c3nc(C)c(C)c(=O)[nH]3)CC2)cc1	0	6	9	0.8	8	0	0.5	x	-1.1	-0.6
CC(CCCCCCCCC(=O)O)N(CCO)C(=O)OC(C)(C)C (centres undefined)	-10	3	5	-7.6	x	x	1.3	x	x	-0.3
CN(Cc1ccccc1NC(=O)c1ccc(S(=O)(=O)N(C)C)cc1)C1CCCCC1	6	x	x	x	-2	-19	x	3%	1.2	-0.1
Cc1cccc(NS(=O)(=O)c2ccc(C(C)(C)C)cc2)n1	x	4	4	2.5	-6	0	-1.9	-2%	4.5	0.0
CN(C)S(=O)(=O)c1cccc(NC(=S)N2CCc3ccccc32)c1	2	-20	-20	-1.5	7	-16	2.7	6%	2.8	-0.5
COc1ccccc1C(CNc1nc(C(F)(F)F)nc2ccccc12)N(C)C (centres undefined)	6	0	-1	1.8	25	-1	-0.3	-4%	0.2	-0.7
O=C(CCNC(=O)Cn1cnc2ccccc2c1=O)NCCC1=CCCCC1	-2	x	x	x	-31	6	x	0%	1.3	-0.3
